CtBP-E1A blk = blocks the CtBP interaction with E1A; AlphaScreen GST-E1A/His-CtBP binding, 1536-well; hits give low values; control for the full effect not named in the record; 340,000 compounds, 0.49% hits; activity change, % (test concentration not listed); in the data active means activity change below about -65%; inconclusive means about -30% to -65%; inactive means above about -30%; further: on the % scale 0 is the no-effect control and ±100 the full control effect
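Steps: dispense buffer (Tris pH 8.0, NaCl 300 mM, TCEP 1 mM, BSA, Tween 20); add 5X protein mix (GST-E1A, His-CtBP, 125 nM each); pin 23 nL compound; 2 h at 37 °C, dark; add 5X beads (50 ug/mL); 1 h; read.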
TRPML1 agonist = activates the human TRPML1 channel; TRPML1-expressing cells, Ca2+ dye fluorescence, FDSS; host cell line not named in the record; reference of the full effect not given here; activation, % (test concentration not listed); 410,000 compounds, 0.12% hits; in the data active = activation above about 50%; inconclusive = about 30% to 50%; inactive = below about 30%; further: 0% is about no effect; the text of the record puts the active cut at 80%
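Calcium fluorescence on an FDSS kinetic reader gave the read-out. Tet-induced TRPML1-DL cells were plated overnight, dye-loaded (Ca8 with quencher, 45-90 min, room temperature, dark), then read 110 s after compound addition, and again 110 s after 4uM final 54-4 (EC80).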
Six1-Eya2 blk = blocks human Six1 binding to Eya2. activity change, % (concentration not given with the values). AlphaScreen GST-Six1/His-Eya2 binding, biochemical; hits give low values; control for the full effect not named in the record. Q15475+O00167. 360,000 compounds, 0.56% hits. AID 651725; in the data active = activity change below about -65%; inconclusive = about -30% to -65%; inactive = above about -30%; further: on the % scale 0 is the no-effect control and ±100 the full control effect
Target sequence (O00167 whole entry, looked up): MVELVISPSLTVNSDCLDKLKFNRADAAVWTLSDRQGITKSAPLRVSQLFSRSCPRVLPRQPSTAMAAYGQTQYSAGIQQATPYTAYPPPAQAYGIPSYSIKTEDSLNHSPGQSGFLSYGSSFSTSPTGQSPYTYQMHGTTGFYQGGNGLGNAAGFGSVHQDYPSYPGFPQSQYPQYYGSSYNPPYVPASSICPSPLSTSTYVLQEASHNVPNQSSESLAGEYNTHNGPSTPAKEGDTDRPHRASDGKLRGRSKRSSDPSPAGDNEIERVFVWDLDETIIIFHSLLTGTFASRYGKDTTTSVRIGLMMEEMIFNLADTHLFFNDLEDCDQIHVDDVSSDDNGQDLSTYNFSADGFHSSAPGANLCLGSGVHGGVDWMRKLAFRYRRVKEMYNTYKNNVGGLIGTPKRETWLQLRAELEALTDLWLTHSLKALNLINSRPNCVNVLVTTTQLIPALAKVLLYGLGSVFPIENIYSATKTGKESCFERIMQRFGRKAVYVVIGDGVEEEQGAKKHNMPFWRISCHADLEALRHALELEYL
Target sequence (Q15475 whole entry, looked up): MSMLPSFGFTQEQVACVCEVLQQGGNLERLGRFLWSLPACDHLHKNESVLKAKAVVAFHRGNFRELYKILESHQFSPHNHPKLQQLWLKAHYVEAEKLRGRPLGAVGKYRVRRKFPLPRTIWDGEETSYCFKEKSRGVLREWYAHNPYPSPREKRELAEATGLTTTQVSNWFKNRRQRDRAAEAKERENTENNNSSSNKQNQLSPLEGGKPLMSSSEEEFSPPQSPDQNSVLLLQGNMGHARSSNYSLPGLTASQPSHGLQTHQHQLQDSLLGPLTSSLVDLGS
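GST-Six1 + His-Eya2 (5X stock: 250/500 nM); Tris pH 8.0, 300 mM NaCl, 0.05% BSA, 0.02% Tween 20; GSH donor/Ni acceptor beads; 1 h 37 °C dark; AlphaScreen readout.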
D2 ag = agonists of human D2 dopamine receptor (beta-arrestin) | DiscoveRx PathHunter D2 beta-arrestin, luminescence, 90 min; 100% = 57 uM dopamine signal | 360,000 compounds, 0.084% hits | AID 624465 | P14416 | activation, % (test concentration not listed); in the data active = activation above about 40%; inconclusive = about 15% to 40%; inactive = below about 15%; further: compound concentration not given in the record; the text of the record calls up to 30% inactive
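Agonist mode: compounds alone added to overnight-plated D2 PathHunter cells for 90 min at 37 C, with 57 uM final dopamine (EC100) defining full response. Beta-arrestin recruitment detected by chemiluminescent reagent, read after 1 h at ambient temperature.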
TRPML1 blocker = blocks the human TRPML1 channel | Q9GZU1 | TRPML1-inducible cells, Ca2+ dye fluorescence, FDSS; hits give low values; inhibition of EC80 agonist-evoked calcium signal | activity change, negative = inhibition, % (no concentration beside the values) | 390,000 compounds, 0.02% hits | AID 624415; in the data active means activity change below about -50%; inconclusive means about -30% to -50%; inactive means above about -30%;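 further: stimulus is agonist 54-4 at its EC80 concentration; on the % scale 0 is the no-effect control and ±100 the full control effect; compound concentration not given in the record; the text of the record puts the active cut at -80%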
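TRPML1-DL cells, Tet-induced overnight (~16 h, 37 °C) at 1,500 cells/well, were loaded with Ca8 no-wash dye plus quencher for 45-90 min at room temperature. Compounds were pinned during FDSS kinetic reading; agonist 54-4 at EC80 (4 uM final) then added.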
PINK1 modulator = PINK1 expression modulation | AID 624263 | PINK1 immunofluorescence, high-content cytometry, 24 h | Potency, µM (highest dose often 76.6 µM), for inactives: at the highest dose activation (PINK1 increase), usual class: activators | 410,000 compounds, 0.2% hits; active = well fitted activation curve with a large enough effect; inconclusive = small, poorly fitted or top-dose-only effect; inactive = flat fitted curve, though single readings scatter; cell line not stated here;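 further: potency means the concentration at half of the fitted maximal effect; % of control where 0% means no effect; nearly all actives have a fitted effect of over 65% in size; a mitochondrial uncoupler was the plate control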
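Compound titrations (5 concentrations, 24 h) on a stable cell line; DMSO and CCCP controls. Endpoint: fixed-cell PINK1 immunofluorescence with mitochondrial, cell and nuclear markers, scanned by microplate cytometer.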
* marks the source's active call; other numbers are inactive results; ? = inconclusive; / = no result given; & = joins results of further samples; [ ] = another dose, or the depositor's remark.

SMILES	CtBP-E1A blk	TRPML1 agonist	Six1-Eya2 blk	D2 ag	TRPML1 blocker	PINK1 modulator
COC(=O)c1c(C(=O)OC)c(-c2ccc(OC)cc2)n2c1CCC2	/	2.8	-11	-1.6	-18	0.0%
O=C(NCc1cccs1)c1cc(-c2ccccc2)nc2ccccc12	-4	1.5	2	-6.3	-5	1.2%
Cc1ccc(S(=O)(=O)c2nnn3c2nc(N2CCC(C)CC2)c2cc(Cl)ccc23)cc1C	/	0.3	/	/	13	-0.5%
Cc1ccc(NC(=O)Cn2ccc(=O)[nH]c2=O)cc1	-2	-0.6	-2	-0.1	-9	6.7%
Cc1ccc(S(=O)(=O)N2CCOCC2)cc1NC(=O)COC(=O)c1ccccc1OCc1c(C)noc1C	3	-0.2	1	-2.4	9	1.5%
COc1cc(CNC(=O)c2cc(-c3cc(Cl)ccc3OC)n[nH]2)cc(OC)c1	-16	-0.4	-7	7.4	/	0.4%
CC(=O)/C(=N\Nc1ccccc1)Sc1cccc2cccnc12	?	1.5	-24	-8.4	40	-0.6%
COCCn1c(C)cc(O)c(C(c2ccccc2)N2CCN(c3ccccc3F)CC2)c1=O (centres undefined)	/	-0.6	/	/	-15	1.4%
CC(C)c1ccc(NC(=O)c2cc(S(=O)(=O)N(C)C3CCCCC3)ccc2F)cc1	/	0.0	/	/	-2	1.8%
Cc1ccc(NC(=O)NCc2ccc3[nH]c(C)cc3c2)cc1	/	3.2	-10	1.6	-3	4.0%
O=C(COc1ccc(F)cc1)Nc1ccc(-n2cnnn2)cc1	6	-1.4	-2	-1.7	-11	-3.0%
Cc1cccc(N2CCN(C(=O)c3cccc(NC4=NC5CS(=O)(=O)CC5S4)c3)CC2)c1C (centres undefined)	0	0.1	-9	-2.6	15	1.1%
COc1ccc(/C=N/NC(=O)c2cc(-c3ccccc3)nc3ccccc23)c(C(=O)O)c1OC	2	2.5	1	1.6	-13	-2.2%
Cc1ccc(NC(=O)CN(C)CC(=O)Nc2ccccc2Oc2ccccc2)cc1	1	0.5	7	3.2	0	-1.9%
Cc1ccc(S(=O)(=O)CCC(=O)Nc2nnc(-c3ccc(F)cc3)o2)cc1	-2	-0.5	-9	-1.8	-2	2.5%
Fc1ccc(NC(=S)N2CCn3cccc3C2c2cccnc2)cc1 (centres undefined)	-4	-1.0	-18	-1.1	0	1.0%
COc1ccc(-c2c(C)cc3oc(=O)cc(-c4ccccc4)c3c2C)cc1	1	-0.9	-2	0.1	37	0.5%
CC1(c2nc3ccccc3[nH]2)c2ccccc2C(=O)N1Cc1ccccn1 (centres undefined)	1	-0.8	-1	/	/	-0.4%
O/N=C(\c1ccccc1)c1nccc2ccccc12	/	0.8	3	1.3	23	1.3%
O=C(Nc1ccccc1F)C1CCCC1	3	0.9	5	1.6	-16	1.8%
COc1cccc(C(=O)/C=C/Nc2ccc(S(=O)(=O)Nc3cc(OC)nc(OC)n3)cc2)c1	-29	0.1	?	-1.6	-3	0.8%
O=C(NCCO)c1cc2ccccc2c(=O)s1	6	0.2	-2	-2.4	-1	0.7%
CCOc1ccc(NC(=O)CSc2nc3ccsc3c(=O)n2CCCCCC(=O)O)cc1	5	1.0&-0.4	6	-2.2	-8&6	-1.0%&-1.0%
Cc1ccc(N2CC(C(=O)NCc3ccc4c(c3)OCO4)CC2=O)cc1C (centres undefined)	-9	0.7	0	-0.9	11	-0.8%
CC(C)c1ccc(C(=O)NCCCN2CCOCC2)cc1	6	0.4	1	-1.4	6	-1.2%
Cc1cc(C)cc(N(C(=O)c2nsc(Cl)c2Cl)C(C(=O)NC2CCCC2)c2ccc(O)cc2)c1 (centres undefined)	-5	2.2	-15	-1.1	14	?
Cc1ccccc1C(=O)c1cccn1CC(=O)NC(C)CCc1ccccc1 (centres undefined)	-5	2.8	-4	0.8	15	1.9%
COc1ccc(-c2coc3c(C)c4oc(=O)c(CC(=O)O)c(C)c4cc23)cc1	0	-1.2	-23	-1.2	7	0.2%
O=C(Nc1ccc(F)c(Cl)c1)Nc1ccc(Cl)cn1	/	-0.2	-1	-1.6	7	4.2%
O=C(Nc1ccccc1)C1CC(O)CN1S(=O)(=O)c1ccc([N+](=O)[O-])cc1 (centres undefined)	-2	-0.4	0	-1.2	-5	-1.4%
CCN(CC(=O)NCc1ccc(Cl)cc1)Cc1cc(=O)n2ccsc2n1	-16	-0.9	2	-3.2	25	2.6%
Cc1ccc(N2CCN(S(=O)(=O)c3ccc4oc(=O)ccc4c3)CC2)c(C)c1	9	0.4	-1	1.0	1	1.4%
CCCN1CCN(c2cc3c(cc2F)c(=O)c(S(=O)(=O)c2ccc(Cl)cc2)cn3C)CC1	/	0.0	/	/	0	2.4%
CCOc1ccc(NC(=O)Cn2cc(C(=O)c3ccc(OC)cc3)c(=O)c3cc4c(cc32)OCO4)cc1	/	0.0	/	/	19	12%
Cc1ccc(S(=O)(=O)NCCC(=O)Nc2cc(F)ccc2C)cc1C	11	1.3	3	-2.6	7	0.9%
O=C(O)c1ccccc1C(=O)NCCc1ccc(Cl)cc1	/	0.4	1	-1.5	9	-1.6%
O=C(NCc1cccs1)c1ccc2ccccc2n1	9	3.0	7	0.7	0	-1.2%
CCOC(=O)c1cc(C)n(CC2CCC(C(=O)Nc3ccc(OC)cc3)CC2)c1C (centres undefined)	/	0.1	/	/	34	1.7%
CCC(=O)NCc1cc(-c2nn(C)c(=O)c3ccccc23)ccc1C	-8	0.8	7	-0.7	-1	-1.5%
COc1cccc(CNC(=O)CCS(=O)(=O)c2ccc3c(c2)oc(=O)n3C)c1	5	-1.0&-0.4	1	1.4	-5&-6	-0.8%&0.5%
COc1ccc(S(=O)(=O)Nc2c(NC3CCCCC3)c3ccccc3oc2=O)cc1Cl	-15	1.5	-13	-0.9	4	3.0%
O=S(=O)(c1cccc2ccccc12)N1CCSC1	-2	1.6	6	-1.6	-8	1.8%
O=C(Nc1nccs1)c1cnccn1	?	-0.5	-24	4.3	-4	5.0%[38.3 µM]
COc1ccc(C(C(=O)NC2CCCC2)N(CCC(C)C)C(=O)CCC(=O)Nc2cc(C)on2)cc1 (centres undefined)	-17	1.9	10	2.2	11	-2.0%
CCCc1[nH]nc2c1C(c1cc(OC)ccc1F)C(C#N)=C(N)O2 (centres undefined)	-6	0.1	-4	-0.7	0	1.9%[38.3 µM]

Ordered by value in CtBP-E1A blk (rising): some entries from above
molecule	CtBP-E1A blk
CCN(CC(=O)NCc1ccc(Cl)cc1)Cc1cc(=O)n2ccsc2n1	-16
COc1ccc(S(=O)(=O)Nc2c(NC3CCCCC3)c3ccccc3oc2=O)cc1Cl	-15
O=S(=O)(c1cccc2ccccc12)N1CCSC1	-2

The list continues:
SMILES	CtBP-E1A blk	TRPML1 agonist	Six1-Eya2 blk	D2 ag	TRPML1 blocker	PINK1 modulator
O=C(NC1CC1)C1CCN(S(=O)(=O)c2cc(Cl)ccc2Cl)CC1	8	-0.7	7	2.0	-2	0.0%
COC(=O)c1cn(CCC#N)nc1-c1ccc2ccccc2c1	-1	0.0	15	3.9	-12	1.6%
Cc1scc(C(=O)Nc2ccon2)c1-c1ccccc1	0	0.6	2	-0.2	-1	0.7%[38.3 µM]
O=C(CNC(=O)c1sc2ccccc2c1Cl)NCc1cccc(C(F)(F)F)c1	0	0.9	0	0.2	-5	0.7%
Fc1ccc(NCc2cccnc2)cc1	4	1.2	1	1.5	-19	0.1%
O=C(Nc1nc2c(s1)CCCC2)c1ccc2ncsc2c1	-14	-0.6	-7	-3.3	-3	-1.2%
Cc1ccc(S(=O)(=O)NCC(=O)NC2CCCC2)cc1	17	-0.4	2	1.6	1	2.6%[38.3 µM]
O=C(Cc1csc(Nc2nc(=S)[nH]c3ccccc23)n1)N1CCN(c2cccc(Cl)c2)CC1	-14	-0.2	?	-13	-6	0.5%
O=C(COC(=O)/C=C/c1cccc(C(F)(F)F)c1)NCCN1C(=O)CSC1=O	-6	0.0	4	0.6	-9	-3.7%
Cc1cc(C)n2cc(CSCc3ccccc3)nc2n1	5	2.7	13	-5.0	8	-1.1%
COC(=O)c1cnn(-c2cc(Oc3ccccc3)ncn2)c1N	-1	-0.4	11	-0.1	-7	0.1%
O=C(Nc1ccc(F)c(F)c1)C1CCCN1S(=O)(=O)c1ccc(F)cc1 (centres undefined)	3	-0.2	13	-1.7	-2	-0.5%
Cc1cccc(C(=O)Nc2cccc3cccnc23)c1	15	0.8	11	-4.6	3	3.7%
CC(C(=O)OCC(=O)c1ccc([N+](=O)[O-])cc1)N1C(=O)C2C3C=CC(C3)C2C1=O (centres undefined)	-20	0.9	7	3.0	-6	-3.5%
CC(C)c1ccc(/C=N/NC(=O)C(=O)NCCCN2CCOCC2)cc1	-4	-0.2	1	0.2	12	-2.3%

One compound at a time, from the list above:
`Cc1cccc(C(=O)Nc2cccc3cccnc23)c1` across the screens: CtBP-E1A blk = 15; TRPML1 agonist = 0.8; Six1-Eya2 blk = 11; D2 ag = -4.6; TRPML1 blocker = 3; PINK1 modulator = 3.7%
`O=C(COC(=O)/C=C/c1cccc(C(F)(F)F)c1)NCCN1C(=O)CSC1=O` across the screens: CtBP-E1A blk = -6; TRPML1 agonist = 0.0; Six1-Eya2 blk = 4; D2 ag = 0.6; TRPML1 blocker = -9; PINK1 modulator = -3.7%

The list continues.
SMILES	CtBP-E1A blk	TRPML1 agonist	Six1-Eya2 blk	D2 ag	TRPML1 blocker	PINK1 modulator
O=S(=O)(NCCCN1CCOCC1)c1ccc2ccccc2c1	-17	4.4	10	-3.4	-14	-2.9%
C/C(CCc1oc2ccc(Cl)cc2c1-c1ccc(C)o1)=N\O	-10	1.1	-12	-1.5	37	4.7%
CC1(Oc2ccccc2-c2ccno2)CCN(Cc2csc3ccccc23)C1 (centres undefined)	-7	-0.4	-6	-3.6	/	6.7%
O=C(CCCn1cnc2ccccc2c1=O)Nc1ccccc1F	5	0.7	-1	-2.2	-12	0.6%
CCCOC1CCCN(C(=O)c2cc(COc3c(F)cccc3F)on2)C1 (centres undefined)	-1	0.1	7	-2.2	0	4.2%
O=C(COc1ccccc1Cl)OCc1cc(=O)n2nc(-c3cccs3)sc2n1	/	-0.8	/	/	-3	0.1%
Cc1cc(C)n(C(=O)COc2ccccc2C)n1	17	0.0	17	-1.7	1	7.0%
CCNC(=S)Nc1ccc(OCC)cc1	4	-0.1	8	-1.4	-2	1.3%
CC(=O)C(Cc1ccccc1)NC(=O)CN1c2cccc3cccc(c23)S1(=O)=O (centres undefined)	-13	0.1	10	-3.1	-16	1.1%
COc1ccc2[nH]c3c(=O)n(/N=C/c4ccc(OC)c(CN5CCCC5)c4)c(C)nc3c2c1	-1	0.4	6	0.9	-16	-0.7%
O=S(=O)(Cc1ccccc1)Nc1cccc(F)c1	-4	-0.6	3	8.5	-21	1.1%
Cc1ccc(S(=O)(=O)Nc2ccc3c(c2)C(=O)N([C@H](C)CO)C[C@H](C)[C@@H](CN(C)C(=O)Nc2ccc4c(c2)OCO4)O3)cc1	4	-0.1	0	0.4	4	0.7%
O=Nc1c(-c2ccccc2)n(O)[n+]([O-])c1-c1ccccc1	2	-0.8	-4	7.7	-5	3.6%

Compound activity: PubChem BioAssay, National Center for Advancing Translational Sciences (NCATS)
